Screening data deposited in PubChem BioAssay by several laboratories.
Mtb bLac sens = beta-lactam sensitization of Mtb H37Rv. AID 434955. M. tuberculosis H37Rv growth with meropenem, percent inhibition; hits of this screen are not shown here. actives 0.27% (n = 330,000). inhibition, % at 25 µM;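 active = about 74% or more and at least 40 points above the plate without the antibiotic, then above 30% in a dose series; inconclusive = first-round hits that could not be retested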;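 note: growth measured after seven days incubation then overnight dye step; 0% = bacteria only wells and 100% = bacteria with antibiotic; twin plates without the antibiotic show which effects depend on it; some results filed as inactive read as strong as hits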
YopH PTP inh = blocks Yersinia enterocolitica YopH tyrosine phosphatase; fluorescence Ex485/Em525; inhibition, %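 (about 10 µM by stock and volumes)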; actives 0.16% (n = 140,000);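 active = inhibition of 50% or more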;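 note: controls were vehicle for no effect and minimum signal wells for full effect; inactives centre near -20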
RecA intein inh = blocks M. tuberculosis RecA intein splicing; P9WHJ3; cell-free RecA intein splicing, fluorescence; inhibition, %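 (about 9 µM by stock and volumes)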; actives 0.75% (n = 290,000); AID 2221; in the data active = inhibition above about 30%; inconclusive = no clear call, values can overlap the other calls;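 note: 0% = vehicle wells and 100% = reference inhibitor control wells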
Target sequence (P9WHJ3 whole entry, looked up): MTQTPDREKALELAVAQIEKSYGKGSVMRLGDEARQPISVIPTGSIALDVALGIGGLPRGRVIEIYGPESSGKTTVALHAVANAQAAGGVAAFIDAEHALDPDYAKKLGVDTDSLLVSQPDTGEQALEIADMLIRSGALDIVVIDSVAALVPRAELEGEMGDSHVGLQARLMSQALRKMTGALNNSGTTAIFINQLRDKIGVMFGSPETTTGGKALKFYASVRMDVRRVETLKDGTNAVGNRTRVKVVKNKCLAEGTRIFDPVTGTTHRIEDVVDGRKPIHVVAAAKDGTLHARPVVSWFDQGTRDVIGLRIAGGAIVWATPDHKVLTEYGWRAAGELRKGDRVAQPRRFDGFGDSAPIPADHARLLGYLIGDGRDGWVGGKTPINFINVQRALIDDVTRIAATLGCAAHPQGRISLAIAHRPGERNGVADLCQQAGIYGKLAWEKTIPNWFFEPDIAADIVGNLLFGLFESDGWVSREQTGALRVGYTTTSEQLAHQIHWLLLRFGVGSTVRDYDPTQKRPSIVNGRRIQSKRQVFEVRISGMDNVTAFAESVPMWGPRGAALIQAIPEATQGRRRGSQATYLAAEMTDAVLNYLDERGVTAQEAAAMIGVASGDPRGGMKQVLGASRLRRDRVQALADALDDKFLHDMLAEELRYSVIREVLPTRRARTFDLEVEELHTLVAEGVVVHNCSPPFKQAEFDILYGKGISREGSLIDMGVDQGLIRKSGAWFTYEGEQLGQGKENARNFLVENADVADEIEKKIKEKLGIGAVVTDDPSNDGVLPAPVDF
Mtb H37Rv = M. tuberculosis H37Rv growth inhibitors, H37Rv strain (AID 1626). M. tuberculosis H37Rv growth inhibition; higher % means a stronger effect. inhibition, % at 10 µM, or IC50 in µM where a hit was titrated. actives 0.95% (n = 220,000);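 active = confirmed in a dose series; inconclusive = inhibition above 80% but not taken into the dose series; inactive = below 80% or under 30% at every dose of the series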;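 note: bacteria incubated seven days before Alamar blue readout; 0% = bacteria only wells and 100% = bacteria with antibiotic wells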
Arbovirus inh = blocks arbovirus infection; arbovirus infection cell-based antiviral screen; AID 1251; actives 0.37% (n = 200,000); inhibition, % at 10 µM;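 active = inhibition from about 30%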;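 note: bluetongue infection of BSR cells; cell survival read as ATP light after 72 h; 0% = infected wells without compound and 100% = uninfected wells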
Arbovirus inh repeat = also measured in Arbovirus inh; calls as there; inhibition, %; measured here: 10K subset replicate screen; many hits read low in the repeat;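 first of two repeat runs on a subset; 0% = infected and 100% = uninfected wells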
* hit, by the source's call; ? = inconclusive; · = no result given. A portion of the library; the hit share may differ from the screen's.

SMILES	Mtb bLac sens	YopH PTP inh	RecA intein inh	Mtb H37Rv	Arbovirus inh	others
Cc1onc(-c2ccccc2)c1C(=O)N/N=C/c1cc2c(cc1Cl)OCO2	4	-17	-0.2	2%	-9
O=c1[nH]c(CSc2cccc[n+]2[O-])nc2ccccc12	100	·	-1.2	-11%	·
CC1OC(C)(C)OC1C1CNc2nc(NC(=O)C(C)(C)C)[nH]c(=O)c2N1C(=O)c1cccnc1 (centres undefined)	-4	-15	-2.8	20%	0
CC(C)CNC(=O)CN1c2cccc3cccc(c23)S1(=O)=O	1	·	0.5	·	·
Cc1ccc(C(=O)N[C@H](C(=O)Nc2sccc2C(N)=O)C(C)C)cc1	-3	·	4.2	·	·
CC(=O)OC1N=C(c2ccccc2)c2cc(Br)ccc2N(C)C1=O (centres undefined)	52	-32	0.1	·	-6
O=c1c(-c2ccc3c(c2)OCCO3)coc2cc(OC3OC(CO)C(O)C(O)C3O)ccc12 (centres undefined)	0	·	-1.0	-5%	·
O=C(CNC(=O)c1ccccc1)Nc1ccc(Br)cc1C(=O)c1ccccc1	42	-31	1.5	7%	4
CC(C)Cn1c(SCC(=O)c2c(N)n(C)c(=O)n(C)c2=O)nc2ccccc21	3	-37	0.1	-2%	-1
COc1ccc(Cl)cc1S(=O)(=O)NCc1cccnc1	-6	-21	2.4	-12%	1
O=C(Nc1cccn(Cc2ccccc2Cl)c1=O)NC1CCCCC1	-1	·	-0.7	-2%	-9
COc1ccc(/C=N/N=C/c2ccc(OC)c(OC)c2)cc1OC	4	-13	0.2	-13%	5
c1ccc(CN2CCN(Cc3c[nH]c4ccccc34)CC2)cc1	4	·	-0.3	·	·
COc1cccc(/C=N\NC(=O)c2ccc(C)nc2)c1	9	·	-1.4	·	·
COc1ccccc1OCc1ccc(C(=O)N2CCN3CCCC3C2)cc1 (centres undefined)	-5	3	0.8	4%	7
Cc1cccc(C)c1NC(=O)COC(=O)Cc1ccsc1	3	-27	1.3	4%	9
CC(C)CCn1c(NCCc2ccccc2)nc2c1c(=O)n(C)c(=O)n2C	-7	·	4.2	14%	19	Arbovirus inh repeat=-5
CN(Cc1ccccc1)S(=O)(=O)c1ccc2c(c1)n(C)c(=O)n2C	-7	-9	-0.5	1%	5
Cc1cccc2cc(CN(Cc3nnnn3Cc3ccco3)C3CCCC3)c3nnnn3c12	1	-7	3.9	-4%	-8
CCCC(C(=O)NC1CCCCC1)N(CC1CCCO1)C(=O)CNS(=O)(=O)c1ccc(F)cc1 (centres undefined)	18	-22	-0.6	1%	-19
CCN(CC)C(=O)C1=C(C)NC(=O)NC1c1ccccc1F (centres undefined)	6	10	-1.9	-3%	3
Cc1cc(C)c(S(=O)(=O)/N=C2\C=C(NS(=O)(=O)c3ccccc3)C(=O)c3ccccc32)c(C)c1	1	·	3.9	·	·
COCCNC(=S)N(CCc1c(C)[nH]c2ccc(F)cc12)Cc1ccc(C)cc1	1	·	7.5	·	·
Cc1cc(C)c(C#N)c(OCC(=O)c2ccccc2)n1	-13	-30	4.3	-4%	-2
CC(Oc1ccc(F)cc1)C(=O)Nc1ccccc1N1CCCCC1 (centres undefined)	-10	·	22	·	·
Cc1ccc(C(=O)c2c3ccc([N+](=O)[O-])cc3[n+]([O-])n2CCCN)cc1	63	·	4.0	·	·
O=[N+]([O-])c1ccc2c(c1)C(N1CCOCC1)/C(=C/COc1ccc(F)cc1)O2 (centres undefined)	-19	-31	9.4	4%	9
N/C(=N\OS(=O)(=O)c1ccccc1)c1cccnc1	-5	-28	·	0%	-8
CCc1ccccc1NC(=O)CSc1nc2n[nH]c(C)c2c(=N)n1-c1cccc(OC)c1	8	-12	0.6	3%	-7
COc1ccc(OCC(=O)NNC(=O)c2cccc(C)c2)cc1	-10	·	-3.1	2%	1
O=C(Nc1nccs1)[C@@H]1CCCN1C(=O)c1cccs1	6	·	0.4	-1%	7
Cc1cccc(NC(=S)NCc2ccc3[nH]c4c(c3c2)CCCC4)c1	2	-31	6.8	9%	-34
O=C(NCc1ccc(CNC(=O)c2ccco2)cc1)c1ccco1	-1	·	1.5	·	·
CN(CC(=O)Nc1ccc(Cl)c(Cl)c1)C(=O)CN1C(=O)NC2(CCCC2)C1=O	-9	·	-0.2	·	·
COc1ccc(OC)c(N(C(=O)c2ccco2)C(C(=O)NC2CCCC2)c2ccc(N3CCOCC3)cc2)c1 (centres undefined)	-8	·	-0.1	·	·
Cc1c(C(=O)C(=O)NCCCn2ccnc2)c2ccccc2n1C	-16	·	7.4	0%	1
O=C(NC(=S)N1CCN(c2ccc(Cl)cc2[N+](=O)[O-])CC1)c1ccco1	84	-33	-1.7	?	-8
COC(=O)CSc1nnc(COc2ccc3ccccc3c2)o1	24	·	0.2	·	·
C=CCOc1cccc(C(=O)N(C)C2CCCN(Cc3ccccc3F)C2)c1 (centres undefined)	-4	·	0.1	·	·
O=C1c2ccccc2-c2nc3ccccc3nc21	94	47	21	1%	-13
COc1ccc(Cl)cc1NC(=S)N1CC(C)OC(C)C1 (centres undefined)	-3	·	-1.1	·	·
Cc1ccc(NC2CCCN(C(=O)c3ccc4nccnc4c3)C2)cc1C (centres undefined)	-2	·	-2.4	·	·
CCCn1c(NCc2ccco2)nc2ccccc21	-8	17	-2.3	-3%	-3
O=C(COC(=O)CNC(=O)c1cccc([N+](=O)[O-])c1)Nc1nc2ccccc2s1	10	-26	5.0	-2%	-11
S=C(CN1CCCC1=S)N1CCOCC1	-12	·	-0.6	·	·
COc1ccc(C(=O)CSc2nnc(C(CO)NC(=O)c3ccc(OC)cc3)n2C)cc1 (centres undefined)	-8	-15	-1.3	0%	1
CCC1COCCS(=O)(=O)N1Cc1ccc(Cl)cc1 (centres undefined)	-8	·	-1.5	·	·
CCc1ccc(NC(=O)C2CCCN(S(=O)(=O)c3cccnc3)C2)cc1 (centres undefined)	0	·	0.4	·	·
Cc1cccc(Cl)c1OCCCN1CCOCC1	-4	·	-1.4	·	·
O=C(CCc1ccccc1)Nc1nncs1	-1	17	2.0	-3%	2
NC(Cc1ccccc1)Cc1ccccc1	-8	·	0.6	-8%	-2
CN(C)S(=O)(=O)c1ccc(C(=O)NCC(C)(C)N2CCOCC2)cc1	-4	·	-1.8	17%	·
O=C(NCc1ccc(F)cc1)c1c2c(nc3ccccc13)CCN(Cc1ccccc1)C2	60	-9	-1.2	0%	3
CCCn1c(=O)c(C(=O)NNS(=O)(=O)c2ccc(C)cc2)c(O)c2ccccc21	0	-29	-4.0	3%	4
CC1(C)Cc2ccccc2C(N/N=C/c2cccc(F)c2)=N1	-3	-30	-0.4	-2%	-3
CCOC(=O)c1cnc2sc3c(n2c1=O)CCCC3	15	-32	·	4%	30
C=CCn1c(-c2csc3ccccc23)n[nH]c1=S	44	-16	0.4	-1%	9
CCC(C)[C@H](NC(=O)N1c2ccccc2NC(=O)[C@@H]1C(C)C)C(=O)N[C@@H](Cc1ccccc1)C(=O)O (some centres undefined)	-4	·	9.3	·	·
Cc1ccc(CN2CCN(Cc3ccc4cccc(F)c4n3)CC2CCO)cc1 (centres undefined)	4	·	1.8	·	·
O=C(Cn1cnnn1)NC1CCCN(Cc2ccccc2F)C1 (centres undefined)	3	·	-1.6	·	·
The list continues:
SMILES	Mtb bLac sens	YopH PTP inh	RecA intein inh	Mtb H37Rv	Arbovirus inh	others
O=c1[nH]c(CN2CC=C(c3ccccc3)CC2)nc2cc(C(F)(F)F)ccc12	95	-30	-0.2	42%	18
COc1ccc(CCNC(=O)COC(=O)Cn2cnc3ccccc32)cc1OC	6	·	-3.5	6%	3
S=C(c1ccc(-c2ccc(Cl)cc2Cl)o1)N1CCCC1	-6	·	1.0	7%	·
Cc1cc(Cl)ccc1OCCCC(=O)NCc1ccccn1	4	·	0.4	1%	-11
O=C(CSc1ccccc1)N1CCN(c2ccc(F)cc2)CC1	-6	·	1.3	·	·
COc1ccccc1C(=O)NC(=O)CSc1nnc(SC)s1	3	·	-2.8	·	·
COc1ccc(S(=O)(=O)NCc2ccc(C(=O)N3CCN(Cc4ccccc4)CC3)cc2)cc1	-4	·	5.6	·	·
COC(=O)c1ccccc1NC(=O)C1CCC(=O)N1S(=O)(=O)c1ccc(C)cc1 (centres undefined)	-2	-28	-1.0	-6%	8
COc1ccc(C2(NC(C)=O)CCN(Cc3cccnc3)CC2)cc1	2	·	-0.1	·	·
COC(=O)c1c(C(=O)OC)c(-c2cccc(F)c2)n2c1CS(=O)(=O)C2	-5	·	0.3	·	·
Cc1cc(Cl)ccc1OCC(=O)OCC(=O)Nc1ccc(F)c([N+](=O)[O-])c1	-3	-31	·	4%	4
CCOc1cc(NC(=S)NCCc2ccccc2)c(OCC)cc1NC(C)=O	-5	·	0.8	-3%	1
CCCN(CC1CC1)C(=O)CSc1nnc(-c2cc(-c3cccs3)nc3ccccc23)o1	-6	10	-0.1	10%	-3
COc1cccc(CN2CCN(C3CCN(c4ccccc4F)CC3)CC2CCO)c1 (centres undefined)	2	·	-1.2	2%	-9
O=[N+]([O-])c1cc(S(=O)(=O)N2CCCC2)ccc1N/N=C/c1cccnc1	2	-38	0.2	6%	0
Cc1nn(-c2ccc([N+](=O)[O-])cc2)c2c1C(c1ccc(OC(F)F)cc1)N1C(=N2)C(=O)Nc2ccccc21 (centres undefined)	75	·	-2.9	4.7µM*	-2
O=C(Nc1c2c(nn1-c1cccc(Cl)c1)CS(=O)(=O)C2)c1ccc2c(c1)OCO2	-2	·	1.3	·	·
COc1ccccc1C(=O)Nc1ccnn1C1CCN(Cc2ccn[nH]2)CC1	-4	·	-1.4	·	·
O=C(Nn1c(-c2ccc(Br)cc2)nc2ccccc2c1=O)c1ccncc1	0	·	1.1	12%	15
COc1ccc(/C=C(/C#N)C(=O)Nc2cccnc2)cc1OC	1	-19	7.5	-5%	-6
CC(=O)Nc1ccc(NC(=O)CSc2nnc(COc3ccccc3C)n2CC2CCCO2)cc1 (centres undefined)	-4	·	-0.6	2%	4
C=CCOc1cccc(CNCc2cccnc2)c1	3	·	-0.2	·	·
Cc1nn(-c2ccccc2)c(N2CCCC2)c1/C=N/NC(=S)Nc1ccccc1C(F)(F)F	69	-8	-0.2	26%	-12
O=C(c1ccccc1-n1cccn1)N1CCc2c([nH]c3ccccc23)C1c1ccccn1 (centres undefined)	3	·	3.0	2%	0
COc1cccc2cc(C(=O)Nc3cc(Cl)ccc3N3CCOCC3)c(=O)oc12	1	·	-1.2	·	·

Entries listed so far with fluorine:
SMILES	Mtb bLac sens	YopH PTP inh	RecA intein inh	Mtb H37Rv	Arbovirus inh	others
CCCC(C(=O)NC1CCCCC1)N(CC1CCCO1)C(=O)CNS(=O)(=O)c1ccc(F)cc1 (centres undefined)	18	-22	-0.6	1%	-19
CCN(CC)C(=O)C1=C(C)NC(=O)NC1c1ccccc1F (centres undefined)	6	10	-1.9	-3%	3
COCCNC(=S)N(CCc1c(C)[nH]c2ccc(F)cc12)Cc1ccc(C)cc1	1	·	7.5	·	·
CC(Oc1ccc(F)cc1)C(=O)Nc1ccccc1N1CCCCC1 (centres undefined)	-10	·	22	·	·
O=[N+]([O-])c1ccc2c(c1)C(N1CCOCC1)/C(=C/COc1ccc(F)cc1)O2 (centres undefined)	-19	-31	9.4	4%	9
C=CCOc1cccc(C(=O)N(C)C2CCCN(Cc3ccccc3F)C2)c1 (centres undefined)	-4	·	0.1	·	·
O=C(NCc1ccc(F)cc1)c1c2c(nc3ccccc13)CCN(Cc1ccccc1)C2	60	-9	-1.2	0%	3
CC1(C)Cc2ccccc2C(N/N=C/c2cccc(F)c2)=N1	-3	-30	-0.4	-2%	-3
Cc1ccc(CN2CCN(Cc3ccc4cccc(F)c4n3)CC2CCO)cc1 (centres undefined)	4	·	1.8	·	·
O=C(Cn1cnnn1)NC1CCCN(Cc2ccccc2F)C1 (centres undefined)	3	·	-1.6	·	·
O=c1[nH]c(CN2CC=C(c3ccccc3)CC2)nc2cc(C(F)(F)F)ccc12	95	-30	-0.2	42%	18
O=C(CSc1ccccc1)N1CCN(c2ccc(F)cc2)CC1	-6	·	1.3	·	·
COC(=O)c1c(C(=O)OC)c(-c2cccc(F)c2)n2c1CS(=O)(=O)C2	-5	·	0.3	·	·
Cc1cc(Cl)ccc1OCC(=O)OCC(=O)Nc1ccc(F)c([N+](=O)[O-])c1	-3	-31	·	4%	4
COc1cccc(CN2CCN(C3CCN(c4ccccc4F)CC3)CC2CCO)c1 (centres undefined)	2	·	-1.2	2%	-9
Cc1nn(-c2ccc([N+](=O)[O-])cc2)c2c1C(c1ccc(OC(F)F)cc1)N1C(=N2)C(=O)Nc2ccccc21 (centres undefined)	75	·	-2.9	4.7µM*	-2
Cc1nn(-c2ccccc2)c(N2CCCC2)c1/C=N/NC(=S)Nc1ccccc1C(F)(F)F	69	-8	-0.2	26%	-12
